gsp antag: gsp mutant antagonism; gsp-mutant cells, cAMP HTRF, 30 min; control for the full effect not named in the record; Potency, µM (series often up to 76.9 µM), without a hit: at the top dose activity change, negative = inhibition, most hits filed as inhibitors; hit rate 0.4% among 340,000; active = falling curve of any shape with a large fitted effect; inconclusive = falling curve, mostly with a smaller effect; inactive = flat or rising curve; cell line not stated here;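 further: intracellular cAMP measured with PDE inhibitor Ro 20-1724 present during compound exposure; potency means the concentration at half of the fitted maximal effect; on the % scale 0 is the no-effect control and ±100 the full control effect; nearly all actives have a fitted effect of over 65% in size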
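Cells, 2000/well, grown 16–24 h in DMEM 10% FBS with 0.5 mg/ml G418, then compounds plus […] (300 uM addition stock), 30 min at 37C. cAMP read by HTRF (cAMP-d2 and anti-cAMP antibody-K in lysis buffer) after 30 min RT.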
gsp ag: gsp mutant agonism; hit rate 0.13% among 340,000; AID 624287; Potency, µM (series often up to 76.9 µM), inactives show at the top dose activation (cAMP increase), most hits filed as activators; gsp mutant cells, cAMP HTRF, 30 min; control for the full effect not named in the record; active = well fitted activation curve with a large enough effect; inconclusive = small, poorly fitted or top-dose-only effect, or another doubt; inactive = no such curve, though single readings can be large or run the other way; cell line not stated here;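 further: phosphodiesterase inhibitor Ro 20-1724 added with compounds to block cAMP breakdown; potency means the concentration at half of the fitted maximal effect; nearly all actives have a fitted effect of over 60% in size; about a fifth of the inactives were tested at one dose only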
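Cells in DMEM/10% FBS with G418 were pretreated with compounds in DMSO plus […] (300 uM stock) for 30 min at 37C. cAMP was measured by HTRF (cAMP-d2 plus anti-cAMP antibody-K) after 30 min at room temperature.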
TRPML1 ag: agonists of human TRPML1 channel. Q9GZU1. TRPML1-expressing cells, Ca2+ dye fluorescence, FDSS; host cell line not named in the record; reference of the full effect not given here. activation, % (no concentration beside the values). hit rate 0.12% among 410,000. AID 624414; in the data active = activation above about 50%; inconclusive = about 30% to 50%; inactive = below about 30%; further: 0% is about no effect; the text of the record puts the active cut at 80%
Target sequence (Q9GZU1 whole entry, looked up): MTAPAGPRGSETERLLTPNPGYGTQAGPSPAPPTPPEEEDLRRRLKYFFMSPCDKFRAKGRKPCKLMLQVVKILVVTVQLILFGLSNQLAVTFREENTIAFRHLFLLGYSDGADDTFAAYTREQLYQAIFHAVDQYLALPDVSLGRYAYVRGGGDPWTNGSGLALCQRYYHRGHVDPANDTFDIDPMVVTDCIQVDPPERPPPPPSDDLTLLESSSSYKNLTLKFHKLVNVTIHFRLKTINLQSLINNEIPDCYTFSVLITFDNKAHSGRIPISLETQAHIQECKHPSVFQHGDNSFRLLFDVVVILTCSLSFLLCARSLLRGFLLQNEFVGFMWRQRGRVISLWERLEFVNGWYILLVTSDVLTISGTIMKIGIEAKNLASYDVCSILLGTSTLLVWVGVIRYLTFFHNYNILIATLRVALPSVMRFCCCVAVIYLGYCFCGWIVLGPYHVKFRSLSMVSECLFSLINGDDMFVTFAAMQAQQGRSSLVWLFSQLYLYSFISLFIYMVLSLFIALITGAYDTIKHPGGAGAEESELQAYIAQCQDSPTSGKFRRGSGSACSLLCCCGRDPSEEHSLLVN
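Tet-induced TRPML1-DL cells, 1,500 per well, cultured overnight, were loaded with a no-wash Ca2+ dye for 45–90 min. Calcium fluorescence was recorded on the FDSS for 110 s after compound addition, before the EC80 agonist (4 uM 54-4) was added.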
Menin-MLL FL inh: menin-MLL binding inhibition, fluorescein peptide | Fluorescence polarization, fluorescein-MLL peptide displacement from menin | 290,000 tested, under 10 active | AID 1766 | FP activity change, % at 61.4 µM; inconclusive = falling polarisation curve, or a change in total fluorescence; inactive = total fluorescence flat and polarisation flat or rising; no compound was filed as active; the % refers to the polarisation; negative = inhibition;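 further: % of control where 0% means no effect; inhibitors lower the polarisation; unlabelled MLL peptide was the positive control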
TRPML1 inh: blocks the human TRPML1 channel; TRPML1-inducible cells, Ca2+ dye fluorescence, FDSS; hits give low values; inhibition of EC80 agonist-evoked calcium signal; AID 624415; hit rate 0.02% among 390,000; activity change, negative = inhibition, % (concentration not given with the values); in the data active means activity change below about -50%; inconclusive means about -30% to -50%; inactive means above about -30%;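 further: stimulus is agonist 54-4 at its EC80 concentration; on the % scale 0 is the no-effect control and ±100 the full control effect; compound concentration not given in the record; the text of the record puts the active cut at -80%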
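Tet-induced TRPML1-DL cells loaded with Ca8 no-wash calcium dye were read kinetically on FDSS. Compound addition was followed by EC80 agonist 54-4 (4 uM final); inhibition was read over 110 s.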
ClpP mod: qHTS Assay for Activators of ClpP | ATP-dependent Clp protease proteolytic subunit (Bacillus subtilis (strain 168)), P80244 | purified B. subtilis ClpP, FRET peptide cleavage, 20 min | Potency, µM (series often up to 57.5 µM), for the others: at the top dose activity change, negative = active | hit rate 1.9% among 340,000; active = well fitted falling curve with a large enough effect; inconclusive = small, poorly fitted or top-dose-only effect; inactive = no such curve, though single readings can be large or run the other way; further: potency means the concentration at half of the fitted maximal effect; the source files actives as falling curves though it sought activators and does not explain the sign; nearly all actives have a fitted effect of over 65% in size; many hits overshoot -100%
Target sequence (P80244 whole entry, looked up): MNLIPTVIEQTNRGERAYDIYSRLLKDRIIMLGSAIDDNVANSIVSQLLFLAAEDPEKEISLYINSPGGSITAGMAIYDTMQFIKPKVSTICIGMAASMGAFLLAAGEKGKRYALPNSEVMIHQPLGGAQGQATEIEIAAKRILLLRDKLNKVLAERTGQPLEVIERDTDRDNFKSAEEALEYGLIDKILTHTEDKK
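Purified B. subtilis ClpP, 10 microg/mL final in Tris/HCl pH8 with KCl, BSA, glycerol and Tween-20, cleaved an Abz/nitrotyrosine-quenched decapeptide. Fluorescence (ex 320, em 430) was read at 0 and 20 min at room temperature. Delta was normalized to 5.8 microM ADEP and DMSO/no-enzyme controls.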
Starred values were filed as active, the others as inactive; ? = inconclusive; nt = not tested or not shown; & = joins results of further samples; [ ] = remark or other dose.

The line under a structure holds: gsp antag	gsp ag	TRPML1 ag	Menin-MLL FL inh	TRPML1 inh	ClpP mod
> CCOc1ccc(/C(O)=C2\C(=O)C(=O)N(CCN(C)C)C2c2cc(OC)ccc2OC)cc1Cl (stereo unspecified)
  -9%	11%[15.4 µM]	1.6	nt	18	-2.4%
> O=C(NCCCN1CCOCC1)c1sc2cc(F)ccc2c1Cl
  8%	?	-0.4	0.8	-5	nt
> COc1nc(OC)nc(Oc2ccc([N+](=O)[O-])cc2Cl)n1
  10%	?	1.0	2.5	-6	0.8%
> Cc1cccc(NC(=S)NNC(=O)c2cc3c(s2)CCC(C)C3)c1C (stereo unspecified)
  2%	26%	3.2	-1.2	-18	25%
> O=C(Cn1cnc2c(cnn2-c2ccccc2)c1=O)Nc1ccc(S(=O)(=O)N2CCOCC2)cc1
  ?	0%	-0.1	4.1	32	-2.0%
> COC(=O)c1[nH]c2ccc(C)cc2c1NC(=O)CN1CCN(c2ccc(F)cc2)CC1
  -16%	-4%	-0.2	2.8	49	-3.8%
> CCn1c(SCC(=O)Nc2nc3ccccc3s2)nnc1-c1ccc(OC)cc1
  -3%	-18%	0.1	-0.1	-9	-1.6%
> O=C(NCc1ccccc1)[C@]1(C(F)(F)F)C[C@H](CCc2ccccc2)CCCO1
  3%	-20%	-0.9&1.5	-1.0	12&81	-3.2%
> CCOC(=O)CCCCCC(=O)Nc1ccc2c(c1)CC(=O)N([C@H](C)CO)C[C@H](C)[C@H](CN(C)S(=O)(=O)c1ccc(OC)cc1)O2
  -12%	nt	0.5	nt	0	2.0%
> O=C(Cc1ccccc1[N+](=O)[O-])NCC(=O)c1ccc2c(c1)OCO2
  9%	-27%	-0.2	nt	29	51%
> CSCC(C)N1CCC(CO)(CCCc2ccccc2)CC1 (stereo unspecified)
  nt	-26%[15.4 µM]	2.0	-1.7	16	nt
> O=C(Oc1ccccc1)N1CCN(c2ccccc2F)CC1
  2%	-6%[15.4 µM]	1.1	1.2	-3	-1.2%
> COC(=O)c1c(NS(C)(=O)=O)sc2c1CCCC2
  -6%	-21%	-0.9	-4.2	7	1.3%
> C[C@H]1CN([C@@H](C)CO)C(=O)c2cccc(NC(=O)Nc3ccc(C(F)(F)F)cc3)c2O[C@@H]1CN(C)S(=O)(=O)c1ccccc1
  -6%	nt	0.3	nt	35	-4.6%
> Cc1ccccc1OCCC(=O)OCC(=O)NC1CCCC1
  1%	-16%[15.4 µM]	1.4	nt	2	nt
> CCOC(=O)N1CCN(c2ccc(S(=O)(=O)N(Cc3ccccc3)Cc3ccccc3)cn2)CC1
  -12%	-9%	5.5	1.1	26	?
> COc1ccc(-c2cc3c(=O)n(CC(=O)Nc4cccc(Cl)c4)ncn3n2)cc1
  22%	-14%	0.1	nt	23	-17%
> Cc1ccc(NC(=C(C#N)C#N)c2ccccc2)cc1
  nt	-1%	0.3	nt	7	0.7%
> CSCCC(Nc1nc2ccccc2s1)C(=O)O (stereo unspecified)
  14%	27%	2.9	4.1	6	-4.3%
> O=C(NCc1ccccc1)c1c[nH]c2ccc(S(=O)(=O)Nc3ccc4c(c3)OCCO4)cc2c1=O
  -3%	-20%	0.5	6.6	4	-11%
> CCN(CC(=O)NCc1cccs1)C(=O)c1cccc(S(=O)(=O)Nc2ccccc2Cl)c1
  -13%	-15%	0.4	nt	-4	35µM*
> CC(C)n1cnc2c(NCc3ccccc3)nc(NCc3ccccc3)nc21
  -2%	nt	-0.4	-0.7	-7	-2.3%
> Cc1ccc(C(=O)NC(Cc2ccccc2C(F)(F)F)C(=O)O)cc1 (stereo unspecified)
  6%	nt	-0.1	nt	-10	1.0%
> Cc1sc2nc(C3CC3)nc(N3CCN(C(=O)c4ccc(Cl)cc4)CC3)c2c1C
  ?	-13%[15.4 µM]	-1.1	12	61	-2.8%
> O=C(COc1ccc(S(=O)(=O)N2CCCC2)cc1Cl)NCc1ccccn1
  -11%	-53%[inhibitor]	0.1	nt	25	-7.0%
> CC(C)CC(=O)NC(c1ccccc1)c1c(O)ccc2ccccc12 (stereo unspecified)
  -16%	4%[15.4 µM]	1.4	-4.3	-6	-18%
> CCN(CC)C(=O)C1=CC(c2ccc3c(c2)OCO3)=NS(=O)(=O)N1C
  nt	nt	-0.5	nt	-17	-3.5%
> COc1ccc(S(=O)(=O)N2CCOCC2)c(C)c1C
  -11%	-53%[inhibitor]	-0.2	3.6	20	-4.2%
> CCN1C(=O)CC(N2CCC(Cc3ccccc3)CC2)C1=O (stereo unspecified)
  9%	-3%	0.3	-0.1	-5	-0.1%
> Cc1c(C(=O)NCc2cccnc2)sc2nc(-c3ccccc3)cn12
  10%	20%	-0.7	3.1	1	0.4%
> COC(=O)c1c(NC(=O)COC(=O)CCc2ccc(S(=O)(=O)N3CCOCC3)cc2)sc2c1CCC2
  -9%	33%	0.6	-3.9	47	?
> COc1ccc(C(=O)N2CCNC(=O)C2CC(=O)Nc2ccc(C)c(C)c2)cc1 (stereo unspecified)
  3%	-3%[15.4 µM]	0.6	nt	1	-0.4%
> C=C1CCC[C@]2(C)C[C@H]3OC(=O)C(CN[C@@H](C)c4ccccc4)[C@H]3CC12 (stereo partly specified)
  10%	-40%[inhibitor][15.4 µM]	-0.2	2.8	21	nt
> COc1ccccc1N1CCN(C2CCCN(C(=O)c3ccccn3)C2)CC1 (stereo unspecified)
  10%	?	1.7	6.8	-4	-2.6%
> CCOc1ccc(C(=O)Nc2ccc(N3CCN(C(=O)c4ccco4)CC3)cc2)cc1Br
  -13%	?	0.5	nt	2	43%
> Cc1noc(C)c1S(=O)(=O)N(CC(=O)NCc1ccc(Cl)cc1)c1ccc2c(c1)OCO2
  -15%	17%	1.5	1.8	25	2.2%
> O=C(c1c(Cl)cccc1Cl)N1CCN(c2ncccn2)CC1
  -15%	21%	nt	?	nt	?
> CCC(C)c1ccc(NC(=O)N2CCOCC2)cc1 (stereo unspecified)
  4%	25%[15.4 µM]	0.1	?	-17	0.2%
> Cc1ccc(S(=O)(=O)CC(CN2CCCCC2)N2CCCCC2)cc1 (stereo unspecified)
  7%	-2%[15.4 µM]	0.2	0.4	-18	nt
> Cc1ccccc1C(=O)NNC(=O)CCc1ccccc1
  4%	6%[15.4 µM]	-0.5	4.3	-7	nt
> O=C(NCc1ccco1)/C(=C\c1cccnc1)NC(=O)c1ccccc1F
  8%	2%	0.0	14	8	-26%
> CN(C)c1cc[n+](CCC(=O)Nc2cccc([N+](=O)[O-])c2N)cc1
  4%	-12%[15.4 µM]	0.6	-1.0	-6	1.0%
> S=C(NCCN1CCOCC1)NC1CCCC1
  4%	1%[15.4 µM]	-0.6	-1.4	-16	nt
> Nc1ccc(C(=O)Nc2ccc3cc(S(=O)(=O)O)ccc3c2)cc1
  -5%	20%	-0.7	nt	-8	nt
> Cc1ccc(C)c(N2CN(CCC3=CCCCC3)CNC2=S)c1
  2%	-1%[15.4 µM]	1.0	0.2	13	-0.5%
> CCOC(=O)C1CCN(CC(C)(C)NS(=O)(=O)c2ccc(C)cc2)CC1
  6%	-5%[15.4 µM]	-0.1	-15	-3	-0.7%
> COc1ccc(CCNCc2c(-c3ccccc3)n(C)c3ccccc23)cc1
  6%	-9%[15.4 µM]	-0.9	-1.9	-5	nt
> Cc1ccc(SCc2[nH]nc3c2C(c2ccc(C)o2)C(C#N)=C(N)O3)cc1 (stereo unspecified)
  ?	28%	1.4	5.0	19	-1.3%
> COCCNC(=O)c1ccc2c(c1)ncn2-c1cccc(C)c1
  12%	11%	nt	1.9	nt	-9.5%
> CC(OC(=O)c1ccc(Cl)c(S(=O)(=O)N2CCOCC2)c1)C(=O)Nc1ccc(S(N)(=O)=O)cc1 (stereo unspecified)
  -2%	23%[15.4 µM]	0.9	nt	4	nt
> Cc1ccccc1NC(=O)C(=O)Nc1ccccc1C
  9%	-36%[inhibitor]	0.6	3.0	-8	nt
> Cc1ccccc1-n1c(Cn2c(=O)sc3ccccc32)nnc1SCC(=O)N1CCOCC1
  -8%	-56%[inhibitor]	-0.1	-0.8	-5	-5.5%
> COc1ccc2c(C)c(CC(=O)NCCc3ccccc3)c(=O)oc2c1OC
  nt	nt	-0.7	nt	12	?
> Cc1ccc(S(=O)(=O)N2CCOC23CCN(S(=O)(=O)c2c(C)cc(C)cc2C)CC3)cc1
  -11%	-15%[15.4 µM]	0.5	nt	90	1.3%
> O=C(CN(C(=O)CNS(=O)(=O)c1ccccc1)c1ccc2c(c1)OCCO2)NC1CCCCC1
  3%	16%	-0.7	2.4	-8	-1.1%
> CCOC(=O)C(Cc1ccccc1)NC(=O)CCc1c(C)nc2nc(C)nn2c1C (stereo unspecified)
  11%	-3%	-0.3&0.9	-1.1	1&9	-2.4%&-0.5%
> COc1ccc(NC(=S)NCCc2ccccc2)c(OC)c1
  7%	-52%[inhibitor]	2.2	3.2	13	-0.4%
> C=C(C)C1CC=C(C)/C(=N/NC(=O)COc2ccc(Cl)cc2)C1 (stereo unspecified)
  -3%	-8%	0.6	4.5	10	0.5%
> COC(=O)c1cc(C#N)c(OC(C)C)nc1C
  8%	27%	0.3	-4.4	18	nt
> CCOC(=O)C1=C(C)N(CCCCCC(=O)O)C(=O)NC1c1ccccc1Cl (stereo unspecified)
  -4%	-13%	-0.8	2.1	2	0.2%

Additional structures
The line under a structure holds: gsp antag	gsp ag	TRPML1 ag	Menin-MLL FL inh	TRPML1 inh	ClpP mod
> COc1cccc(N2CCN(C(=O)c3cccc(N4C(=O)NC5CC4(C)Oc4c(OC)cccc45)c3)CC2)c1 (stereo unspecified)
  -10%	-43%[inhibitor]	-0.4	nt	-10	-0.2%
> Cc1csc(NC(=O)CCCC(=O)O)c1-c1nc2ccccc2s1
  -6%	11%[15.4 µM]	-0.3	6.2	3	nt
> CCC1CCCCN1C(=O)CSc1nnc(N)s1 (stereo unspecified)
  2%	-6%	-0.8	nt	-8	nt
> Cc1cccc(OCCOC(=O)c2c(-c3ccccc3)noc2C)c1
  -6%	?	0.7	0.0	-12	nt
> O=C(OCc1nnc(-c2cccs2)o1)c1cccnc1Cl
  -5%	-1%	-0.1	nt	-19	-6.8%
> COc1cc(C(C)=O)ccc1Oc1ncnc2c1cnn2-c1cccc(Cl)c1
  6%	16%	-0.5	4.6	-4	-2.7%
> CCOc1ccccc1NC(=O)c1cc(S(=O)(=O)NCc2ccco2)ccc1F
  -9%	3%	0.9	nt	-29	1.3%
> COc1ccc(-c2nc3ccccc3n2Cc2ccc(Cl)cc2)cc1
  nt	nt	1.3	nt	70	4.1%
> CC(C)(C)OC(=O)COc1ccc(/C=N/NC(=O)CN2CCCCC2)cc1
  7%	-15%	3.1	?	17	1.1%
> Fc1ccccc1CN1CCCN(C(=S)Nc2cccc(Cl)c2)C1
  -20%	8%	-0.5	4.4	4	nt
